# GAA glycogen mod: alters human alpha-glucosidase cleavage of glycogen; recombinant GAA, glycogen substrate, Amplex Red glucose oxidase fluorescence; Potency, µM (highest dose often 76.4 µM), for inactives: at the top dose activity change, negative = inhibition, most hits filed as inhibitors; 0.38% of 300,000 active;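 further: 0% = full enzyme reaction and -100% = no-enzyme basal signal; the screen sought inhibitors and activators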
#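 Natural-substrate format: glycogen cleavage by 4 nM human enzyme, glucose read by Amplex Red coupling (Ex 573, Em 610 nm). Normalized to enzyme and no-enzyme controls.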
# aGlu spleen mod: inhibitors or activators of human alpha-glucosidase in spleen homogenate. human spleen homogenate, 4-MU-alpha-glucoside fluorescence. Potency, µM (top dose mostly 79.9 µM), for the others: at the top dose activity change, negative = inhibition, actives largely listed as inhibitors. 0.006% of 240,000 active. AID 2112;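 further: 0% = enzyme with vehicle and -100% = no enzyme basal signal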
#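 Human spleen homogenate (1 ug) incubated with compounds and 1 mM 4-methylumbelliferyl-alpha-D-glucopyranoside in pH 5.0 citrate/phosphate buffer, 37 C, 40 min. Stopped at pH 10; 4-MU fluorescence (Ex 365/Em 440 nm); AC50 by Hill fit.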
# NPSR antagonist: neuropeptide S receptor (human) antagonism, cAMP | CHO-NPSR cells, cAMP TR-FRET, antagonist mode | 1% of 220,000 active | Potency, µM (titrated, usually from 38.3 µM), inactives show at the highest dose activity change, negative = inhibition, hits mostly inhibitors | AID 1461; further: on the % scale 0 is the no-effect control and ±100 the full control effect; nearly all actives have a fitted effect of over 50% in size; many of its hits are not listed in these tables
# Target sequence (Q6W5P4 whole entry, looked up): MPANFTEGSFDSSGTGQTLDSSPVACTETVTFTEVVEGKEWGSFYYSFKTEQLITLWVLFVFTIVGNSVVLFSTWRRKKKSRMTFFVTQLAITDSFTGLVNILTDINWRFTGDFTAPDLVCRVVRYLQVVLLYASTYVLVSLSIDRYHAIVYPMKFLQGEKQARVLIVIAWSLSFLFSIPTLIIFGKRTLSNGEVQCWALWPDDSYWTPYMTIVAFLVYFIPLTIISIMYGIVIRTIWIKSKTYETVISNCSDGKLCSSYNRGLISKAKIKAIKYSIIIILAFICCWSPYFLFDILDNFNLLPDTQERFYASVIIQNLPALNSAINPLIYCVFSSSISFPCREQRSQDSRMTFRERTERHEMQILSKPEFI
# Tau fluor counter: counter-screen for tau fibril formation inhibitors; Potency, µM (highest dose often 57.7 µM), without a hit: at the highest dose activity change, negative = decrease; 0.93% of 280,000 active; tau K18 P301L Alexa594 fluorescence, heparin fibrillization; further: on the % scale 0 is the no-effect control and ±100 the full control effect; nearly all actives have a fitted effect of over 55% in size
#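 Human tau K18 P301L (15 uM unlabeled, 0.24 uM Alexa 594-labeled) in 100 mM sodium acetate pH 7 with 20 uM heparin, 6 hr at 37 C. ThT 30 uM added, 1 hr ambient; Alexa 594 FP and total fluorescence read at 555/632 nm.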
# Epigenetic reg: derepresses silenced GFP reporter in murine cells. Potency, µM (doses to about 53.9 µM), without a hit: at the highest dose GFP activation, usual class: activators. murine LDR cells, GFP reporter derepression, 30 h. AID 1865. 0.2% of 280,000 active; further: % of control where 0% means no effect; nearly all actives have a fitted effect of over 60% in size
#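 Derepression of a silenced CMV-GFP reporter in murine LDR cells is scored by enumerating GFP-positive cells with a laser-scanning microplate cytometer after 30 hours of treatment at 37 C.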
# GAA inhib: inhibitors of human lysosomal alpha-glucosidase | P10253 | purified human GAA, 4-MU-alpha-glucoside fluorescence | AID 1466 | 0.005% of 200,000 active | Potency, µM (highest dose often 76.9 µM), for the others: at the top dose activity change, negative = inhibition, usual class: inhibitors;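 further: plate controls were uninhibited enzyme wells for no effect and no-enzyme background for full effect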
#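 Endpoint fluorogenic read: 20 min room-temperature reaction of 4 nM human alpha-glucosidase with 400 uM 4-methylumbelliferyl-alpha-D-pyranoside, pH 5.0, quenched with 1M NaOH/1M glycine pH 10. AC50 from Hill modeling.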
# GLA spleen mod: inhibitors or activators of human alpha-galactosidase in spleen homogenate; human spleen homogenate, 4MU-alpha-Gal fluorescence, 40 min; Potency, µM (highest dose often 80 µM), for inactives: top-dose activity change, negative = inhibition, actives largely listed as inhibitors; 0.008% of 240,000 active; AID 2107;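 further: 0% = enzyme with vehicle and -100% = no enzyme basal signal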
# Target sequence (P06280 32-429 limits assumed): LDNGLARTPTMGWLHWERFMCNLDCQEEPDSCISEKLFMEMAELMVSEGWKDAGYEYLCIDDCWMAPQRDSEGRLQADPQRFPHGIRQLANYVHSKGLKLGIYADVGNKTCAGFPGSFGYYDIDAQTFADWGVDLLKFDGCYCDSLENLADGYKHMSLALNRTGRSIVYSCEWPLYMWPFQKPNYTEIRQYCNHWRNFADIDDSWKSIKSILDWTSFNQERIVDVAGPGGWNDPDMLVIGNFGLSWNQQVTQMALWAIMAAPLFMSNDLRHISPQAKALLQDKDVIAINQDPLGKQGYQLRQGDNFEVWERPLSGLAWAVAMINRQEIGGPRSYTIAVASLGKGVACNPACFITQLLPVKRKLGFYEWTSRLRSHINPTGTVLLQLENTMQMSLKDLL
#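 Spleen homogenate 1 ug + cpd (titration) + 4-MU-alpha-D-galactopyranoside 1 mM; 37C 40 min; 50 mM citrate/phosphate pH 5.0, 0.01% Tween-20; stop pH 10; fluorescence 365/440; AC50 via Hill.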
# The depositor's hits bear a star; u = inconclusive; x = no result given; & = joins results of further samples; [ ] = dose if it differs, or a comment. The call rests on the fitted dose curve; in most records, active means well fitted curve in the direction sought with a large enough effect; inconclusive means small, poorly fitted or top-dose-only effect, or another doubt; inactive means no such curve, though single readings can be large; an effect the other way counts as inactive or inconclusive. Potency means the concentration at half of the fitted maximal effect. The list is partial, so the mix of outcomes need not match the whole.
SMILES,GAA glycogen mod,aGlu spleen mod,NPSR antagonist,Tau fluor counter,Epigenetic reg,GAA inhib,GLA spleen mod
CCOc1ccc(C(C(=O)NC2CCCCC2)N(C(=O)c2ccco2)c2ccc(-n3cnnn3)c(C)c2)cc1 (configuration not stated),-8%,-10%,-25%,-5%,-1.0%,0%,1%
O=C(Nc1ccccc1)OCCCc1ccccc1,-5%,4%,4%,-24%,3.9%,1%,-1%
CCCn1nnc(NC(=O)c2cccnc2Cl)n1,6%,4%,3%[46.1 µM],1%,-0.1%,-5%,11%
CCOC(=O)c1c(C)oc2c1C(=O)c1ccccc1C2=O,0%,-11%,2%,-17%,0.4%,4%,-8%
O=C(CNC(=O)c1ccc(Br)cc1)OCc1cc([N+](=O)[O-])cc2c1OCOC2,-2%,-3%,-6%,-23%,-1.2%,-8%,0%
CN(c1ccc(C(=O)NCc2ccccn2)cc1)S(C)(=O)=O,5%,-15%,5%[46.1 µM],-1%,-3.2%,8%,2%
O=C(c1ccncc1)N1c2ccccc2Sc2ccccc21,-1%,x,-4%,-4%,3.4%,-1%,5%
CNC(=O)NCC12CC3CC(CC(C3)C1)C2,-4%,-2%,-23%[46.1 µM],4%,-3.8%,-1%,0%
CN(CC(=O)Nc1ccc(S(N)(=O)=O)cc1)Cc1ccccc1F,u,-4%,2%,-7%,-1.5%,u,-10%
O=C(Cn1nc(-c2ccccc2)c2ccccc2c1=O)NCC1CCCO1 (configuration not stated),6%,0%,8%[46.1 µM],2%,-0.7%,-3%,4%
COc1ccc(C(=O)Nc2cccc(-c3cnc4ccccc4n3)c2)cc1,8%,1%,-6%[46.1 µM],-26%,-0.8%,0%,4%
CC(C)c1[nH]nc2c1C(Cc1ccccc1)C(C#N)=C(N)O2 (configuration not stated),2%,6%,-18%[46.1 µM],-3%,-0.4%,0%,3%
COc1ccccc1NC(=O)CSc1nncn1-c1cccnc1,6%,-5%,4%,-6%,-0.1%,u,7%
Cc1cc(C=NCCO)c(C)n1-c1cc(Cl)ccc1Cl,2%,9%,7%,2%,3.9%,2%,2%
O=C(OCC(=O)N1CCC(Cc2ccccc2)CC1)c1ccc[nH]c1=O,4%,1%,3%[46.1 µM],13%,0.9%,0%,-8%
C=CCOC(=O)C1=C[C@@H](c2ccc3c(c2)OCO3)C[C@@H](OCc2ccc(CO)cc2)O1,-20%,1%,22%,-15%,-1.5%,x,1%
CCOC(=O)c1[nH]c2ccc(Br)cc2c1NC(=O)CCN1CCCCC1,7%,-22%,2%[46.1 µM],-4%,0.5%,-3%,13%
CCc1cc(-c2onc(C)c2-c2cscn2)c(O)cc1OC,-2%,-2%,39%,-19%,-1.3%,-6%,-3%
Clc1ccc(CNc2ccc3nnc(-c4ccccc4)n3n2)cc1,-4%,-1%,-5%,-12%,0.9%,5%,0%
COC(=O)c1ccccc1N(C)S(=O)(=O)c1cc2c(cc1C)OCC(=O)N2,-7%,3%,0%,0%,-1.1%,-7%,0%
COc1cc(C2SC(C)C(=O)N2CCc2ccccc2)cc(OC)c1OC (configuration not stated),5%,-16%,-24%,-15%,2.1%,-5%,12%
O=C(OCCNc1ncc(C(F)(F)F)cc1Cl)c1ccc(S(=O)(=O)N2CCOCC2)cc1,-11%,-18%,7%[7.67 µM],-24%,-2.4%,u,12%
COc1ccc(N2CC(C(=O)Nc3nnc(SCC(=O)NC(C)(C)C)s3)CC2=O)cc1 (configuration not stated),4%,-3%,5%,2%,0.8%,11%,0%
C[C@@H]1C(=O)NC2=Nc3cccc(Cl)c3CN21,x,-11%,2%[46.1 µM],-3%,-0.2%,x,-4%
Cn1cc(Br)c(C(=O)NC2CCCCC2)n1,-1%,-6%,-4%[46.1 µM],-5%,-1.1%,4%,15%
# Going on with the list:
SMILES,GAA glycogen mod,aGlu spleen mod,NPSR antagonist,Tau fluor counter,Epigenetic reg,GAA inhib,GLA spleen mod
C#CCCCC(=S)Nc1ccccc1,x,1%,x,-8%,2.9%,x,2%
CN1CCN(c2ccc(Cl)cc2NC(=O)c2ccc(=O)n(C)n2)CC1,7%,4%,1%,8%,0.9%,4%,7%
O=C(COc1ccccc1)N1CCc2ccccc2C1,-2%,-1%,-8%[46.1 µM],-6%,0.0%,5%,-8%
Cc1cc(C)n(CCc2nc(-c3ccc(-c4ccccc4)cc3)cs2)n1,4%,-2%,9%,0%,-3.8%,-9%,2%
O=S(=O)(c1ccccc1)c1nc(-c2ccccc2)oc1N1CCCC1,16%,-5%,-15%,-8%,0.1%,1%,-7%
CCCCc1c(C)nc2ccccc2c1SCCC(=O)O,16%,-2%,-23%,0%,-0.4%,0%,-3%
CC1CCc2c(sc3ncnc(N4CCOCC4)c23)C1 (configuration not stated),-1%,4%,-8%[46.1 µM],-6%,-0.7%,-5%,5%
O=C(Cc1ccccc1)Nc1cc(C(=O)c2ccccc2)ccc1N1CCOCC1,0%,0%,-14%[46.1 µM],-20%,-2.6%,-3%,-3%
COc1ccc(C2C(C(C)=O)=C(O)C(=O)N2c2cccnc2)cc1OC (configuration not stated),5%,-1%,-7%[46.1 µM],-5%,-4.5%,-3%,0%
Cc1ccc(NC(=O)C2CCCN(S(=O)(=O)c3ccc4c(c3)oc(=O)n4C)C2)nc1 (configuration not stated),4%,1%,1%[46.1 µM],7%,-0.8%,-1%,5%
Cc1ccc(S(=O)(=O)N=S(CCO)CCO)cc1,3%,-1%,11%,3%,4.5%,-7%,-2%
O=C(c1cc2cc([N+](=O)[O-])ccc2s1)N1CCOCC1,-5%,x,9%,1%,-1.2%,u,2%
O=C(CC1Sc2ccccc2NC1=O)NCc1ccc(Cl)cc1 (configuration not stated),0%,x,7%,-2%,-1.2%,0%,-4%
O=C(CCCn1cnc([N+](=O)[O-])n1)Nc1ccc(Cl)cc1Cl,-7%,-8%,15%,4%,-1.0%,1%,4%
Cc1ccnc(NC(=O)CCC2COc3ccccc3O2)c1 (configuration not stated),-8%,-6%,-14%[46.1 µM],-5%,-1.1%,u,1%
Cc1cccc(-c2cc(C(=O)Nc3sc(C)c(C)c3C(N)=O)c3ccccc3n2)c1,4%,1%,-16%[46.1 µM],u,0.6%,-11%,1%
COCCNC(=S)N/N=C(\C)c1cc2ccccc2o1,-24%,2%,-25%,-5%,u,-7%,-3%
CCCCC1=CC2=CC(=O)C(C)(OC(=O)c3cnc4ccccc4n3)C(=O)C2=CO1 (configuration not stated),-10%,-8%&3%,26%,-5%&-8%,-0.1%&-1.6%,x,7%&3%
O=C(Nc1ccc([N+](=O)[O-])cc1)c1nc[nH]c1C(=O)NC1CCCCC1,-10%,4%,-43%,u,1.0%,2%,13%
Oc1ccc(-c2nc3ncccn3c2Nc2ccc3c(c2)OCCO3)cc1,25µM*,-12%,-19%[46.1 µM],25µM*[quencher],0.7%,-7%,-7%
COc1ccc(/C=N/NC(=O)c2sccc2OCc2ccc(F)cc2)cc1OC,4%,-9%,-14%[46.1 µM],-10%,2.3%,-2%,1%
N/C(=N\OC(=O)CCCOc1ccccc1)c1ccncc1,1%,-7%,8%,1%,-0.4%,-4%,4%
CCOc1c(OC(C)=O)ccc(/C=C/c2ccc3cccc(OC(C)=O)c3n2)c1[N+](=O)[O-],-9%,-19%,u,8.9µM*[quencher],-0.9%,-2%,-9%
Cc1cc(=O)[nH]c(SCCCOc2ccc(F)cc2)n1,6%,-2%,14%[46.1 µM],-15%,7.1%,-2%,4%
Cc1cccc(NC(=O)CCNC(=O)c2ccco2)c1C,3%,5%,8%,0%,-0.2%,10%,3%
# The list goes on:
SMILES,GAA glycogen mod,aGlu spleen mod,NPSR antagonist,Tau fluor counter,Epigenetic reg,GAA inhib,GLA spleen mod
Cc1ccc(S(=O)(=O)NC(C)C(=O)NC2CCCCCC2)cc1 (configuration not stated),5%,-7%,-7%[46.1 µM],-1%,-0.1%,-2%,0%
COc1cc(OC)c(OC)cc1/C=C/c1cc(C(F)(F)F)[nH]c(=O)n1,-8%,-2%,-5%,-3%,-0.1%,u,-2%
COCCNC(=O)C(c1ccc(O)cc1)N(C(=O)CCC(=O)Nc1nccs1)c1ccc(C)cc1 (configuration not stated),17%,7%,-19%,-4%,0.0%,11%,1%
CC1(O)/C=C\C=C(\CO)C2CC(C)(C)C2(O)CC1 (configuration not stated),x,4%,x,-21%,0.0%,x,-3%
CCC(C)C(=O)Nc1nccs1 (configuration not stated),-18%,-12%,20%,-10%,-0.1%,11%,2%
O=C(Cn1ncc2c1-c1ccccc1OC2)Nc1ccc(S(=O)(=O)N2CCCCC2)cc1,-8%,-9%,-16%[46.1 µM],u,0.8%,u,-1%
CC(C)c1ccc(NC(=O)CSc2ncccc2C(=O)Oc2cccc([N+](=O)[O-])c2)cc1,-18%,5%,-11%,18%,0.0%,2%,0%
c1ccc(C(c2nnnn2C2CCCC2)N2CCN(c3ccccc3)CC2)cc1 (configuration not stated),-15%,-9%,-25%[46.1 µM],-20%,0.0%,0%,0%
COC(=O)C(NC(=O)c1ccco1)(Nc1nc(C2CC2)cs1)C(F)(F)F (configuration not stated),-20%,-4%,-11%[46.1 µM],-4%,0.9%,-2%,-20%
O=C(O)C(CCCCN1C(=O)c2ccccc2C1=O)N1C(=O)c2ccccc2C1=O (configuration not stated),-1%,-2%,-8%[46.1 µM],1%,0.1%,1%,2%
COc1ccccc1OCCC(=O)Nc1cccc(S(=O)(=O)N2CCCCC2)c1,-3%,-12%,-3%,-16%,-1.8%,-7%,-2%
O=C(NCc1ccc(Cl)cc1)NCc1ccc(Cl)cc1,-10%,-4%,14%,9%,-0.7%,-4%,-4%
O=S(=O)(Nc1nc2ccc(S(=O)(=O)N3CCCC3)cc2s1)c1ccc(F)cc1,-7%,-5%,-26%[46.1 µM],-22%,-1.5%,-14%,-3%
Clc1ccc(CSc2ccc(-c3cccnc3)nn2)cc1,3%,-2%,-22%,-18%,2.3%,-4%,-4%
CCSc1nc(C)cc(C)c1S(=O)(=O)c1ccccc1C,-10%,-1%,u,-27%,-3.5%,u,0%

# Whole records from above.
# COc1ccccc1OCCC(=O)Nc1cccc(S(=O)(=O)N2CCCCC2)c1 as listed: GAA glycogen mod: -3%; aGlu spleen mod: -12%; NPSR antagonist: -3%; Tau fluor counter: -16%; Epigenetic reg: -1.8%; GAA inhib: -7%; GLA spleen mod: -2%
# CC(C)c1ccc(NC(=O)CSc2ncccc2C(=O)Oc2cccc([N+](=O)[O-])c2)cc1 as listed: GAA glycogen mod: -18%; aGlu spleen mod: 5%; NPSR antagonist: -11%; Tau fluor counter: 18%; Epigenetic reg: 0.0%; GAA inhib: 2%; GLA spleen mod: 0%
# CCC(C)C(=O)Nc1nccs1 (configuration not stated) as listed: GAA glycogen mod: -18%; aGlu spleen mod: -12%; NPSR antagonist: 20%; Tau fluor counter: -10%; Epigenetic reg: -0.1%; GAA inhib: 11%; GLA spleen mod: 2%

# Bioassay records from PubChem.
